Vaccinia mCherry – inhibitors of vaccinia virus infection (mCherry reporter signal); Potency, µM (titrated, usually from 36.5 µM), for the others: at the highest dose activity change, negative = inhibition, actives largely listed as inhibitors; 310,000 tested, 0.63% active; Vaccinia virus mCherry reporter infection, fluorescence; about a quarter of the inactives have no number; active = well fitted inhibition curve with a large enough effect; inconclusive = small, poorly fitted or top-dose-only effect; inactive = no such curve, though single readings can be large or run the other way; tested in A549 cells; also: nearly all actives have a fitted effect of over 35% in size; inactives centre near -10
Vaccinia Venus – inhibitors of vaccinia virus (Venus reporter). AID 720580. 330,000 tested, 0.46% active. Vaccinia virus Venus reporter expression, fluorescence. Potency, µM (series often up to 36.5 µM), for inactives: top-dose activity change, negative = inhibition, actives largely listed as inhibitors; active means well fitted inhibition curve with a large enough effect; inconclusive means small, poorly fitted or top-dose-only effect; inactive means no such curve, though single readings can be large or run the other way; tested in A549 cells; also: nearly all actives have a fitted effect of over 30% in size; inactives centre near -10
* hit, by the source's call; i = inactive; ? = inconclusive; nt = not tested or not shown; [ ] = dose if it differs, or a comment. % is scaled to controls: 0 for no effect and ±100 for the full control effect; potency is read from the fitted curve at half-maximal effect.

structure	Vaccinia mCherry	Vaccinia Venus
CN(C(=O)c1ccc(NC(=O)Cc2ccc(NC(=O)C3CCN(C(=O)CCc4ccccc4)CC3)cc2)cc1)C1CC1	i	-16%
CCC(=O)Nc1ccc(C(=O)Nc2cccc(OC)c2)cc1	nt	-15%
O=C(OCC(=O)N1CCN(c2ccccc2)CC1)c1ccc[n+]([O-])c1	-14%	0%
CCOC(=O)C1=CCN(S(=O)(=O)c2ccc(F)cc2)C1c1ccc(F)cc1 (stereo not drawn)	-6%	-3%
CC(C)N(C(=O)[C@H]1C[C@H](CC(=O)NCCCn2ccnc2)C(=O)N2CCc3c([nH]c4cc(CCC(=O)N(C)C)ccc34)[C@]12C)C(C)C	-2%	3%
O=C(NCCCn1ccnc1)c1cccc(S(=O)(=O)NCc2ccccc2)c1	i	-5%
CCOc1ccc(S(=O)(=O)N(CC)CC)cc1NC(=O)CSCc1c(C)noc1C	i	-17%
CCOC(=O)c1sc(NNC(=O)c2ccc(C)cc2)nc1C	-23%[7.34 µM]	-5%[7.34 µM]
CC(=O)C(Sc1nc(N2CCOCC2)nc(N2CCOCC2)n1)C(=O)Nc1ccccc1 (stereo not drawn)	-14%	-9%
CCCCC(CCC(=O)Nc1ccc(C(=O)OCC)cc1)C(=O)O (stereo not drawn)	nt	?
Cc1nc(N)sc1-c1csc(Nc2ccccc2)n1	-14%	-1%
O=c1[nH]c(=S)[nH]c2c1C(c1cccc(C(F)(F)F)c1)OC(CCc1ccccc1)C2 (stereo not drawn)	-4%	-2%
O=C(N/C=N/O)C(c1ccccc1)c1ncc(C(F)(F)F)cc1Cl (stereo not drawn)	-8%	-15%
COC(=O)c1scc(-c2ccc(C)cc2)c1S(=O)(=O)N1CCN(c2cccc(OC)c2)CC1	0%	12%
CCCCCc1c(C)nc(Nc2ccc(F)cc2)[nH]c1=O	i	-18%
CN(C)c1ccc(CNC(=O)C2CCN(S(=O)(=O)c3ccc4c(c3)CCC(=O)N4)CC2)cc1	36%[activator]	4%
O=C(c1ccc([N+](=O)[O-])cc1)N1CCN(C(=O)c2cccs2)CC1	-2%	-24%
COc1cccc(NC(=S)N(CCN(C)C)C(C)c2ccco2)c1 (stereo not drawn)	-19%	-6%
CCOc1ccc(CNC(=O)c2cc(=O)[nH]c3ccc(S(=O)(=O)N4CCCCC4)cc23)cc1	-10%	-11%
COc1cc(Cl)c(C)cc1NC(=O)c1nn(C)c2c1CSc1ccccc1-2	-4%	-7%

The list goes on:
structure	Vaccinia mCherry	Vaccinia Venus
COc1ccc(OC)c(-n2c3c(cc(-c4nc(-c5ccc(Cl)cc5)cs4)c2=O)C(=O)CC(C)(C)C3)c1	-2%	-6%
CC(C)CC(COCc1ccc(Cl)cc1)N1CCN(C(=O)c2cccc(C(F)(F)F)c2)CCC1=O (stereo not drawn)	i	-23%
O=C(N/N=C/c1ccco1)C1COc2ccccc2O1 (stereo not drawn)	i	-14%
CC1CN(C(=O)C(C)Sc2nc3ccccc3s2)CC(C)O1 (stereo not drawn)	-12%	-12%
COc1cc2cnc(C3=CCCCC3)cc2cc1OC	-15%	-22%
Cc1nc2ccc(S(=O)(=O)NCC(=O)N3CCOCC3)cc2s1	-5%	2%
CCC(=O)Nc1ccccc1-c1nnn(CC(=O)N2c3ccccc3CC2C)n1 (stereo not drawn)	i	-2%
CC(=O)NC1C(=O)Nc2c(C)cc(C)cc21 (stereo not drawn)	i	-1%
Cc1nccn1CC(=O)c1ccccc1	i	-10%
CCOc1ccc(C(=O)NCCCN(CC)CC)cc1	-19%	-2%
CCOC(=O)COc1ccc(S(=O)(=O)N2CCN(c3ccccc3F)CC2)cc1	i	-7%
COc1ccccc1OCC(=O)Nc1ccccc1C(=O)N1CCCCC1	-10%	-12%
COC(=O)[C@H](C)NC(=O)NCc1ccc(S(N)(=O)=O)cc1	i	-8%
CC1=CC(=O)CC2C1(C)CCC(C)C2(C)CCC(C)CC(=O)O (stereo not drawn)	-5%	1%
CCCCc1nc2cc(C(=O)N3CCC(OCCOC)CC3)ccc2o1	i	-20%
COc1ccccc1N1CCN(c2nc(N)c(C#N)c(CC#N)c2C#N)CC1	nt	1%
COc1ccc(C(=O)Nc2cccc(S(=O)(=O)NCc3ccco3)c2)cc1	-5%	-19%
CCOC(=O)CSc1nnc(NC(=O)c2ccc3c(c2)OCO3)s1	-14%	2%
O=C(O)C(=Cc1cccc([N+](=O)[O-])c1)c1ccccc1	-24%	-3%
CCOC(=O)N1CCN(C(=O)COC(=O)c2cc(C)ccc2C)CC1	-12%	0%

Four entries drawn at random from the list so far, as already listed:
structure	Vaccinia mCherry	Vaccinia Venus
COC(=O)[C@H](C)NC(=O)NCc1ccc(S(N)(=O)=O)cc1	i	-8%
CCOc1ccc(C(=O)NCCCN(CC)CC)cc1	-19%	-2%
CC1=CC(=O)CC2C1(C)CCC(C)C2(C)CCC(C)CC(=O)O (stereo not drawn)	-5%	1%
CCOC(=O)N1CCN(C(=O)COC(=O)c2cc(C)ccc2C)CC1	-12%	0%

Some of the entries so far, with values under each structure:
Screens in order: Vaccinia mCherry	Vaccinia Venus
CC(C)CC(COCc1ccc(Cl)cc1)N1CCN(C(=O)c2cccc(C(F)(F)F)c2)CCC1=O (stereo not drawn)
 : i	-23%
O=C(N/N=C/c1ccco1)C1COc2ccccc2O1 (stereo not drawn)
 : i	-14%
CC1CN(C(=O)C(C)Sc2nc3ccccc3s2)CC(C)O1 (stereo not drawn)
 : -12%	-12%

Later entries.
structure	Vaccinia mCherry	Vaccinia Venus
COc1ccc(-c2nc3nc(SC)nn3cc2C)cc1F	i	0%
CN1/C(=C\C(=S)NC(=O)c2cccc(Br)c2)C(C)(C)c2ccccc21	i	34%[activator]
COc1ccc(N2CC(C(=O)Nc3ccncc3)CC2=O)cc1 (stereo not drawn)	i	0%
O=C(NCc1ccc2c(c1)OCO2)C1CC(c2cccc(Br)c2)=NO1 (stereo not drawn)	-14%	-7%
COc1ccc(-c2cc3onc(-c4c(Cl)cccc4Cl)c3c(=O)n2C)cc1	-3%	-23%
O=C(Nc1ccc(Cl)cc1[N+](=O)[O-])c1ccc2c(c1)OCCO2	-3%	-9%
CCCC(=O)Nc1cc(-c2nnc3c4ccccc4c(C)nn23)ccc1C	-17%	-16%
O=C(CCS(=O)(=O)c1ccccc1)NC1CCCCC1	-14%	-7%
O=C(Nc1ccc(C(=O)N2CCOCC2)cc1)c1cccc(Br)c1	-12%	-4%
Cc1ccc(Cn2c(=O)n(Cc3ccccc3Cl)c(=O)c3cccnc32)cc1	-14%	1%
COc1ccccc1NS(=O)(=O)c1cccc(C(=O)N/N=C/c2c(C)nn(-c3ccccc3)c2N2CCCC2)c1	-31%	-23%
COC(=O)C1=C(c2ccc(OCc3ccccc3)cc2)C[C@@H]2CC[C@H]1N2C(=O)NC1CCN(Cc2ccccc2)CC1	-6%	?
CN1CCCN(C(=O)CNC(=O)c2ccc(Cl)cc2Cl)CC1	i	-7%
Cc1c(Cl)cccc1-c1ccc(/C=N/n2cnnc2)o1	-7%	-18%
CCCn1c(=N)c(C(=O)NC2CCCC2)cc2c(=O)n3cc(C)ccc3nc21	21%	1%
O=C(NCCOc1ccccc1F)c1cc([N+](=O)[O-])ccc1N1CCOCC1	i	-27%
COc1ccc(CC(=O)NCC2CCCN(Cc3cccc(C(F)(F)F)c3)C2)cc1 (stereo not drawn)	-5%	-16%
Cc1ccc(NC(=O)c2ccc3c(=O)n4c(nc3c2)CCC4)cc1S(=O)(=O)N(C)C	-6%	-16%
Cc1nc(C(F)(F)F)ccc1C(=O)N1CCC1(C)C(=O)NS(=O)(=O)c1ccc(Cl)cc1 (stereo not drawn)	i	-3%
Cc1ccc(S(=O)(=O)N2c3ccccc3-c3c(ssc3=S)C2(C)C)cc1	-2%	-29%

New compounds follow:
canonical_smiles	Vaccinia mCherry	Vaccinia Venus
CC1CCN(C2(O)C(=O)Nc3ccc(Br)cc32)CC1 (stereo not drawn)	-7%	-15%
Cc1cc(NC(=O)c2ccccc2)ncc1NC(=O)c1ccco1	i	-15%
CSc1nnc(-c2sc3cc(C(F)(F)F)cnc3c2-c2cccnc2)n1C	nt	-16%
CCOc1ccc(N(CC(=O)NCc2ccc(F)cc2)C(=O)c2ccco2)cc1	i	-17%
Cc1ccc(-c2noc(/C=C/c3ccccc3)n2)cc1	i	-14%
Cc1nc2cc(Nc3nnc(-c4ccccc4)c4ccccc34)ccc2n1C	?	-22%
CCC1Oc2ccccc2N(CC(=O)NC2CCCCC2C)C1=O (stereo not drawn)	-4%	-6%
Cn1c(=O)c2c(nc(Oc3ccc4c(c3)OCO4)n2Cc2ccc(Br)cc2)n(C)c1=O	i	0%
COc1ccc(C(=O)c2c3ccc(C(F)(F)F)cc3[n+]([O-])n2CCCC(N)=O)cc1	-11%	-23%
c1ccc(-c2nnc3sc(CN4CCc5ccccc54)cn23)cc1	i	-16%
CCCCn1c(/N=C/c2ccc3c(c2)OCO3)nc2ccccc21	-20%	-14%
C=CCSc1nc2c(c(C3CC=CCC3)c1C#N)CCC2 (stereo not drawn)	i	-13%
Cc1cc(Br)cc(C)c1OCC(=O)NNC(=O)c1cccs1	-12%	-6%
COc1ccc(C(=O)Nc2ccccc2)cc1NC(=O)c1cccs1	-3%	-18%
CCN(CC(=O)Nc1cc(Cl)ccc1C)C(=O)C1CC(=O)N(Cc2ccccc2)C1 (stereo not drawn)	0%	-17%

(continued)
canonical_smiles	Vaccinia mCherry	Vaccinia Venus
O=C(NCC1COc2ccccc2O1)c1ccc(F)c(S(=O)(=O)N2CCOCC2)c1 (stereo not drawn)	-21%	-13%
COc1ccc(-c2ccnc(-n3ncc(C(=O)NCc4cccnc4)c3C3CC3)n2)cc1F	-27%	-9%
CCCCCN(C(=O)CCC(=O)OCCOc1ccc(OC)cc1)c1c(N)n(CCCC)c(=O)[nH]c1=O	-18%	-24%
CCCC(=O)Nc1ccc(-c2cn3cccnc3n2)cc1	-13%	-14%
CCOc1ccc(Sc2cc(C(=O)NCc3ccc(C)cc3)c3ccccc3n2)cc1	-11%	-11%
C=CCNC(=O)c1ccccc1NC(=O)c1ccc(Cl)c(S(=O)(=O)Nc2cc(C)ccc2C)c1	i	?
C[C@H](NC(=O)c1ccccc1F)C(=O)N1CCC2(CC1)NCCc1[nH]cnc12	-8%	-10%
Cc1ccccc1NC(=O)c1nc(S(=O)(=O)Cc2ccccc2F)ncc1Cl	-18%	-21%
N#Cc1c(C(F)(F)F)cc(-c2ccc(F)cc2)nc1SCC(=O)Nc1ccccc1	i[7.34 µM]	-15%[7.34 µM]
NC(=O)c1c(NC(=O)CN2CCCC2)sc2c1CCCC2	-27%	-13%
O=C(O)/C=C/C(=O)Nc1ccccc1SC(F)(F)F	-4%	-18%
FC(F)c1nnc2c(Cl)cc(C(F)(F)F)cn12	-5%	-2%
CC(=O)Nc1ccc(Nc2nc(Cl)nc(Nc3ccc(NC(C)=O)cc3)n2)cc1	5%	10%
CCc1ccccc1NC(=O)CSc1ncc(S(=O)(=O)c2ccccc2)c(=O)[nH]1	12%	8%
Cc1sc2ncn(CCC(=O)O)c(=O)c2c1C	nt	-19%

(cont.)
canonical_smiles	Vaccinia mCherry	Vaccinia Venus
CCOC(=O)C1CCN(C(=O)COC(=O)CNS(=O)(=O)c2ccc(SC)c([N+](=O)[O-])c2)CC1	-10%	-3%
Cc1ccc(NC(=O)Nc2ccc(F)cc2)cc1Cl	i	-22%
Cc1ccc(OCC(=O)Nc2ccc(C(=O)OCc3cc(=O)n4c(C)csc4n3)cc2)cc1	i	-14%
COc1ccc(N(C(=O)c2snc(C(N)=O)c2N)C(C(=O)NC2CCCC2)c2ccco2)cc1 (stereo not drawn)	-3%	-11%
N#CC1(C#N)C(C(=O)C23CC4CC(CC(C4)C2)C3)C12CCOCC2 (stereo not drawn)	i	2%
COc1ccccc1NS(=O)(=O)c1ccc2c(c1)n(C)c(=O)n2C	-4%	-14%
COC(=O)[C@@H]1C[C@@]2(O)[C@@H](O)[C@@H](O)[C@@H](O)C[C@H]2N1Cc1cc(OC)cc(OC)c1	i	-12%
CS(=O)(=O)N(CC(=O)NC1CCCCCC1)Cc1ccccc1	i	-3%
CC(=O)c1c(C)[nH]c(C(=O)COC(=O)c2c(-c3ccccc3)noc2C)c1C	-5%	-19%
O=C(Nc1cc(Cl)ccc1O)c1cc2nc(-c3ccc4c(c3)OCO4)cc(C(F)(F)F)n2n1	-21%	-14%
Cc1ccc(-c2nc(C(=O)NCc3ccc(Cl)cc3)c3n2CCCCC3)cc1	-29%	?
Nc1ccc2c(c1)C(=O)C(=O)c1ccccc1-2	nt	3.5µM*
O=C(CNCc1ccc(F)cc1)Nc1ccccc1-c1ccccc1	-3%	-19%
S=P(NCCSCc1ccccc1)(N1CC1)N1CC1	-20%	0%
COc1ccc(NC(=O)c2cc3c(=O)n(Cc4cccnc4)ccc3nc2C)c(OC)c1	0%	1%

Next section.
canonical_smiles	Vaccinia mCherry	Vaccinia Venus
CCC(=O)C(CCN1CCOCC1)(c1ccccc1)c1ccccc1	i	-14%
CCNC(=S)N/N=C/c1ccc(-c2ccccc2)o1	-24%	-13%
O=C(NCCC1=CCCCC1)c1ccc([N+](=O)[O-])cc1	i	-6%
COCOc1ccc(-c2oc3c(C/C=C(\C)CCC=C(C)C)ccc(O)c3c(=O)c2OCOC)c(OCOC)c1	-7%	-1%

Screening data as filed in PubChem.
